Source: PubChem BioAssay
Rce1 inhib: blocks yeast Ras-converting enzyme. 0.27% of 290,000 active. calls only. Q03530. yeast membranes, quenched prenylated peptide cleavage fluorescence;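 active = fall in fluorescence gain of 50% or more versus controls, with final raw signal at or below 3038400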;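 note: plate controls were neutral control wells for no effect and wells lacking membranes for full effect; tested at 10 µM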
Target sequence (Q03530 whole entry, looked up): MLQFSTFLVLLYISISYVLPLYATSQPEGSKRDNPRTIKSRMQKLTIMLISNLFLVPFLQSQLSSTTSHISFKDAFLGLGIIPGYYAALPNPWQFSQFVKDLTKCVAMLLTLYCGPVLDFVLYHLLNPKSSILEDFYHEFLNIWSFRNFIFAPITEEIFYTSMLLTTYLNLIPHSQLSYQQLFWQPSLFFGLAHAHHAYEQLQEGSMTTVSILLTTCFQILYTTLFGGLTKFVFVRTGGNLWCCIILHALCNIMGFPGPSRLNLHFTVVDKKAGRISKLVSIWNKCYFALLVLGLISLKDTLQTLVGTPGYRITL
CSC inhib: cancer stem cell inhibition; cancer stem cell-like cells viability, luminescence; inhibition, % at 7.5 µM; 1.1% of 300,000 active;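 active = mean at 75% or more and at least half the replicates too; tested in HMLE shEcad cells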;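 note: 0% = median of negative and 100% = median of positive control wells; the first replicate is given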
PABP polyA inh: blocks human PABP binding to poly(A) RNA | inhibition, % at 35 µM | fluorescence polarization | P11940 | 1% of 290,000 active;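 active = 50% or more with normal probe brightness, or confirmed in later tests; about a fifth of its hits are not listed in these tables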;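 note: calls also rest on retests at 20 µM and on dose response follow-up; controls were probe without protein and protein plus probe with vehicle; some compounds called inactive have numbers as strong as hits; many hits fall short of the cut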
MT1-MMP act inh: blocks activation of human MT1-MMP | AID 651647 | HT1080 RFP-PRO-GFP cells, GFP/RFP ratio fluorescence, overnight; percent of plate control window, DMSO zero | 0.061% of 360,000 active | GFP/RFP ratio change, % at 20 µM;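 active = GFP/RFP ratio change of at least 30% with cell ATP level not reduced by more than half and red fluorescence within 50% of control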; note: strong numbers were not always called active
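Read-out: GFP/RFP fluorescence ratio; Test system: RFP-PRO-GFP reporter HT1080 cells; Compound dosing: single-point 20 µM compound, 1% DMSO; Times: overnight compound exposure at 37 °C.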
UUG fidelity: modulators of start codon recognition fidelity in yeast; S. cerevisiae UUG-firefly luciferase reporter, luminescence/redox ratio; activity score, % at 18.7 µM; 0.13% of 350,000 active; AID 602363;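 active = replicate mean at a twofold rise or more, about +100% in these data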;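 note: firefly luciferase made from a UUG start codon reports start codon fidelity; reporter light over untreated wells divided by growth signal over untreated wells; some hits fall short of that in this replicate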
eIF4H inh: inhibitors of RNA binding by human eIF4H; eIF4H fluorescence polarization binding assay; inhibition, % at 35 µM; 0.94% of 290,000 active;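 active = 50% or more with normal probe brightness, or confirmed in later tests; about a fifth of its hits are not listed in these tables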;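 note: calls also rest on retests at 20 µM and on dose response follow-up; 0% = protein and probe with vehicle and 100% = probe without protein; strong numbers were not always called active; many hits fall short of the cut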
Env fusion inh: blocks HIV Env-driven cell-cell fusion | HeLa-JRFL Env/CEM21 cell fusion, luciferase | inhibition, % at 12.3 µM | 1.1% of 360,000 active | AID 651610;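 active = mean replicate inhibition score of at least 50 and every replicate individually at or above 50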;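 note: 0% = plate neutral controls and 100% = maraviroc near 300 nM; one replicate is shown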
eIF4H inh retest: also measured in eIF4H inh; calls as there; inhibition, %; compound at 20 µM; confirmation average;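 mean of two retest wells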
PABP polyA inh retest: further read-out of PABP polyA inh, marked with its call; inhibition, %; compound at 20 µM; confirmation repeats;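 mean of two retest wells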
MT1-MMP act inh RFP: recorded beside MT1-MMP act inh, whose call it bears; RFP signal change, %; measured here: RFP expression control read;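 0 = vehicle wells; hits needed this value within 50% of zero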
An asterisk follows results filed as active; i = inactive; nt = no result given; & = joins results of further samples.

SMILES	Rce1 inhib	CSC inhib	PABP polyA inh	MT1-MMP act inh	MT1-MMP act inh RFP	UUG fidelity	eIF4H inh	Env fusion inh	others
CCOC(=O)C1(Cc2cccc(OC)c2)CCCN(S(=O)(=O)c2cccnc2)C1 (stereo not drawn)	i	-13	0	-2	1	nt	-14	4
CCN(CC)C(=O)N1CCN(S(=O)(=O)c2ccc(C)c(C)c2)CC1	i	-14	-9	0	-9	-2	-11	nt
C=CCN(CC=C)C(=S)NC(=O)Cc1cccc2ccccc12	i	12	1	7	-1	nt	34	-7
CC(=O)c1c(C)[nH]c(C(=O)N2CCN(C(=O)c3ccco3)CC2)c1C	i	-14	5	-6	0	-45	2	25
COc1ccc(/C=N/NC(=O)c2nn(-c3ccc(Cl)cc3)c(=O)c3c(N)scc23)cc1	i	-7	45	17	6	-6	66	-15	eIF4H inh retest=-11;PABP polyA inh retest=6
COc1ccc(NC(=O)c2ccc(Cl)c(S(=O)(=O)NCC3CCCO3)c2)c(OC)c1 (stereo not drawn)	i	-7	0	1	-6	-10	-6	13
CCc1cccc(CC)c1N(COC)C(=O)Cn1c(CO)nc2ccccc21	i	-1	2	1	0	-16	-10	-78
CCOC(=O)c1c(NC(=O)c2ccc(C)cc2)sc2c1CC(C)(C)OC2	i	0	-2	-5	-9	-10	-10	nt
CCOC(=O)C1(CCOC)CCN(Cc2cnc(-c3cccc(C)c3)nc2)CC1	i	6	-9	0	-8	nt	-6	25
COc1ccc(NC(=O)/C(=C\c2cccnc2)NC(=O)c2cccs2)cc1	i	-3	1	11	7	-5	-1	nt
O=C(O)c1ccc(CNC(=O)c2ccccc2NC(=O)c2ccc([N+](=O)[O-])cc2)cc1	i	0	-9	1	5	nt	-2	0
CCOc1ccc(C2/C(=C(\O)c3ccc4c(c3)OCCO4)C(=O)C(=O)N2CCN2CCOCC2)cc1OC (stereo not drawn)	i	8	4	2	1	-10	-13	-36
FC(F)(F)c1cc(-c2ccco2)nc(N2CCOCC2)n1	i	-5	5	1	-1	-10	-2	nt
Cc1cccc(NC(=O)C2CCCN(S(=O)(=O)c3cccc4cccnc34)C2)c1 (stereo not drawn)	i	3	4	3	-5	-5	2	6
COc1c(S(=O)(=O)n2nc(C)cc2C)ccc(Cl)c1Cl	i	-8	-6	5	2	-13	-7	-83
CCOC(=O)C1=C(COC(=O)/C=C/c2ccc(OC)cc2OC)NC(=O)NC1C (stereo not drawn)	i	-9	nt	1	1	3	nt	nt
O=C1CCN(Cc2nnnn2CC2CCCO2)c2ccccc2N1 (stereo not drawn)	i	nt	0	6	0	-4	-3	nt
CCOC(=O)C(=CNc1ccccc1Cl)C(=O)OCC	i	nt	5	-1	0	-12	5	2
NC(=O)c1ccc(Oc2ccc(Cl)cc2)c([N+](=O)[O-])c1	i	60	-5	0	0	nt	-5	3
Cc1ccccc1CN(C)c1ccc(S(=O)(=O)N2CCN(C)CC2)cn1	nt	nt	nt	-1	-1	-8	nt	0
CC1CCC(NC(=O)c2ccc(NC(=O)CC3SC(N4CCCC4)=NC3=O)cc2)CC1 (stereo not drawn)	i	16	nt	2	0	-13	nt	-46
COc1cc(C2c3[nH]c4ccccc4c3C[C@@H]3C(=O)N(Cc4ccco4)CC(=O)N23)cc(OC)c1OC (stereo partly drawn)	i	-9	-2	-1	-3	-17	4	-67
Clc1cccc(Cl)c1/C=C/c1ccn[nH]1	i	59	-1	2	-3	-9	2	-48
Cc1ccc(/C=N/NC(=O)CSc2nnc(-c3ccc(Cl)cc3)n2-c2ccccc2)o1	i	13	-3	3	-2	nt	-1	9
CCOC(=O)Oc1ccc2c(c1)C(C)=CC(C)(C)N2C(=O)OCC	i	15	-15	-6	-1	3	-8	25

The list continues:
SMILES	Rce1 inhib	CSC inhib	PABP polyA inh	MT1-MMP act inh	MT1-MMP act inh RFP	UUG fidelity	eIF4H inh	Env fusion inh	others
O=S(=O)(NC1c2cccc3cccc(c23)C1N1CCNCC1)c1ccccc1 (stereo not drawn)	i	-1	6	-25	-9	-12	1	-125
COC(=O)c1cc(OC)nc2ccc(Br)cc12	nt	15	4	-2	3	nt	3	1
CCNC(=O)C1(C)CCN(Cc2cccc(Oc3ccccc3)c2)C1 (stereo not drawn)	nt	nt	nt	-2	-7	-1	nt	6
CC1CCN(CCNC(=O)CN(C)S(=O)(=O)c2cccc3nsnc23)CC1	i	5	0	1	0	-23	3	4
Cc1c(Cl)cccc1NC(=O)c1cccnc1	i	-4	18	0	-2	-22	-2	4
CC1CCCN(c2nc3nonc3nc2Nc2ccccc2F)C1 (stereo not drawn)	i	7	1	2	-5	nt	-7	16
COc1ccc(CN2CCN(S(=O)(=O)c3ccc(C)cc3)CC2)cc1OC	i	-10	nt	9	-3	nt	nt	-17
COc1ccc2[nH]c(=O)c(CN(Cc3cccs3)C(=S)Nc3ccccc3)cc2c1	i	-3	2	nt	nt	nt	-4	nt
C#CCN(C[C@@H]1[C@@H](OC(=O)NC2CC2)[C@@H](OC(=O)NC2CC2)CN(C(=O)OC(C)C)N1C(=O)OC(C)C)S(=O)(=O)c1ccc(C)cc1	nt	nt	nt	-4	-3	-6	nt	9
C[N+](C)(CC#Cc1ccccc1)CC(=O)c1ccccc1	i	1	-16	-2	0	-10	-2	-45
COc1ccccc1N1CCN(C(=O)CCC(=O)N2CCN(c3ccccc3OC)CC2)CC1	i	5	14	-4	-1	-2	6	27
CC(C)NC(=O)C1(C)CCCCN1Cc1ccc(OCc2ccccc2)cc1 (stereo not drawn)	nt	nt	nt	-1	-11	-21	nt	41
Cc1ccc(N(C(=O)c2ccc(Br)o2)C2C=CS(=O)(=O)C2)cc1 (stereo not drawn)	i	11	-3	0	3	-18	4	18
O=C(NC(=S)NCC1CCCO1)c1cccc([N+](=O)[O-])c1 (stereo not drawn)	i	-1	2	3	2	-15	-8	-20
CN(CC(=O)Nc1ccc(N2CCOCC2)cc1)C(=O)c1cc(S(=O)(=O)N(C)C)ccc1Cl	i	nt	-4	-2	1	-3	-11	0
COc1ccc(NC(=O)C2CC(=O)N(C)C(=Nc3ccc4c(c3)OCO4)S2)cc1 (stereo not drawn)	i	49	nt	3	-1	nt	nt	nt
COc1ccccc1NC(=O)CSc1nc2sc(C)c(C)c2c(=O)n1Cc1ccco1	i	13	0	1	3	-22	-12	-39
O=C(COC(=O)Cc1c(Cl)cccc1Cl)Nc1ccc2[nH]c(=O)[nH]c2c1	i	-6	nt	3	1	-16	nt	i
CCOC(=O)c1oc2ccc(S(=O)(=O)n3nc(-c4ccc(Cl)cc4)cc3N)cc2c1C	i	56	5	1	-14	4	-8	-7
COc1ccc(OC)c(S(=O)(=O)Nc2c(NC3CCCCC3)c3ccccc3oc2=O)c1	i	nt	0	1	-3	-4	-7	nt
CCC(Sc1nc2cc3c(cc2c(=O)n1Cc1ccco1)OCO3)C(=O)NCCOC (stereo not drawn)	i	11	-10	-2	-1	-3	2	-20
Nn1c(Cc2ccccc2)nc2cc(Cl)ccc2c1=O	i	-5	12	-3	-8	-7	-1	5
Cc1ccc(N(CC(=O)NCc2ccc(F)cc2)C(=O)c2snc(C(N)=O)c2N)cc1C	i	7	3	-5	-5	-15	-14	14
O=[N+]([O-])c1ccc(NCc2ccccc2N2CCC(CO)CC2)nc1	i	-11	12	0	-7	-11	-14	10
COc1ccc(S(=O)(=O)N(C)c2ccc(C(=O)Nc3ccccc3C(=O)N3CCOCC3)cc2)cc1	i	-8	1	1	2	3	3	1

Next section
SMILES	Rce1 inhib	CSC inhib	PABP polyA inh	MT1-MMP act inh	MT1-MMP act inh RFP	UUG fidelity	eIF4H inh	Env fusion inh	others
CCc1[nH]nc2c1C(c1cccc(OC(=O)N3CCOCC3)c1)C(C#N)=C(N)O2 (stereo not drawn)	i	nt	-5	2	6	nt	-7	19
O=C(COC(=O)c1ccc([N+](=O)[O-])cc1)Nc1cccnc1Cl	i	-9	8	-1	3	-20	-5	27
O=C(O)c1cc(N/C(=N\S(=O)(=O)c2ccc(F)cc2)c2ccccc2)ccc1O	nt	nt	nt	-1	6	-16	nt	-5
S=C(NCCN1CCOCC1)N1CCN(c2cccc(Cl)c2)CC1	i	-1	12	5	-11	-3	2	-4
CCS(=O)(=O)N1Cc2ccccc2CC1C(=O)N(C)CC(=O)Nc1ccc(F)c(F)c1F (stereo not drawn)	i	-18	nt	0	-1	-23	nt	nt
C[C@H]1CN([C@@H](C)CO)C(=O)CCCn2nncc2CO[C@H]1CN(C)C(=O)c1ccncc1	nt	nt	nt	4	5	-12&-14	nt	-12
CCc1ccc(NC(=O)CCN2C(=O)c3cccnc3C2=O)cc1	i	-8	14	4	5	-8	5	nt
O=C(CNS(=O)(=O)c1ccc(Br)cc1)NC1CCCC1	i	10	-8	-1	0	-7	-9	-10
O=C(/C=C/c1ccccc1Cl)N(c1ccccn1)C1CCCCC1	i	-9	5	-1	0	-10	5	nt
COc1ccc(S(=O)(=O)N2CCN=C2SCc2cccc(F)c2)cc1	i	11	-3	-3	3	-5	-10	-14
CCOc1ccc2[nH]c(=O)c(CN(CCc3ccccc3)C(=O)N3CCOCC3)cc2c1	i	-16	2	-3	-6	-16	5	nt
O=[N+]([O-])c1ccc(Sc2cccc3cccnc23)cc1	i	-16	-3	0	-16	-39	-1	nt
Cc1c(C(=O)NCCN2CCOCC2)oc2ccccc12	i	-16	0	-4	2	-6	-4	-31
O=C(OCc1nnc(-c2ccccc2)o1)c1cccc(-n2cnnn2)c1	nt	-5	nt	4	5	-19	nt	-5
O=C(O)c1nn(CC(=O)N2CCCCCC2)c(=O)c2ccccc12	i	-13	2	0	0	nt	1	-2
CCOC(=O)N1CCN(C(=O)Nc2ccc3nccnc3c2)CC1	i	-19	-2	1	8	-19	4	nt
Cc1ccc(C(NC(=O)NC(C)c2ccccc2)C(Cl)(Cl)Cl)cc1F (stereo not drawn)	i	-1	9	-40	-39	2	8	nt
C=CCNC(=S)NNC(=O)COc1c(Cl)cc(Cl)cc1Cl	i	-2	-1	0	-1	-9	14	32
COc1ccc(-c2nnc(NC(=O)C3CCCO3)s2)cc1 (stereo not drawn)	i	-7	14	8	5	-26	2	-26
O=C(NN1C(=O)NC2(CCCCC2)C1=O)c1ccc(-c2ccc([N+](=O)[O-])cc2)o1	i	-3	-3	4	-1	3	4	10
CCOC(=O)N(C)c1c(CC)nc2c(OCc3ccccc3OC)cccn12	nt	nt	nt	-2	2	-14	nt	-2
COc1cccc(C2C=C(c3ccc(OC)cc3OC)Nc3nnnn32)c1 (stereo not drawn)	i	-6	-3	-25	-14	-19	-8	nt
CC(=O)Nc1ccc(NC(=O)CSC2=NCCS2)cc1	i	nt	-4	0	2	nt	0	nt
Cc1cc2n(n1)SC(Nc1cccc3ccccc13)N2 (stereo not drawn)	i	-3	-3	2	-6	-36	-1	16
CCOC(=O)/C=c1\sc2n(c1=O)CCN=2	i	-2	5	8	-1	-14	-9	-27
O=C(CCNC(=O)c1ccc(Cl)cc1)NCc1ccccc1Cl	nt	nt	nt	-1	1	-3	nt	-63
Cc1cc(=O)[nH]c(-c2cccs2)n1	i	0	2	2	7	nt	-5	-1
O=S(=O)(NCCc1ccccn1)c1ccc(OC(F)(F)F)cc1	i	-7	-4	1	0	-14	1	6

5 compounds already listed, sorted by length of the SMILES, smallest number first.
SMILES	Rce1 inhib	CSC inhib	PABP polyA inh	MT1-MMP act inh	MT1-MMP act inh RFP	UUG fidelity	eIF4H inh	Env fusion inh	others
O=[N+]([O-])c1ccc(Sc2cccc3cccnc23)cc1	i	-16	-3	0	-16	-39	-1	nt
S=C(NCCN1CCOCC1)N1CCN(c2cccc(Cl)c2)CC1	i	-1	12	5	-11	-3	2	-4
O=C(/C=C/c1ccccc1Cl)N(c1ccccn1)C1CCCCC1	i	-9	5	-1	0	-10	5	nt
CCOC(=O)N(C)c1c(CC)nc2c(OCc3ccccc3OC)cccn12	nt	nt	nt	-2	2	-14	nt	-2
O=C(O)c1cc(N/C(=N\S(=O)(=O)c2ccc(F)cc2)c2ccccc2)ccc1O	nt	nt	nt	-1	6	-16	nt	-5

This is a subset, so the mix of outcomes need not match the whole.
